Compound activity deposited in PubChem BioAssay by Broad Institute.
NOMO-1 viab – STK33 inhibitor candidate reducing NOMO-1 cell viability. NOMO-1 AML viability, CellTiter-Glo luminescence, 72 h. inhibition, % (no concentration beside the values). 7.5% of 37,000 active. AID 2330;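 active = most replicates above 80%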;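 also: wells of about 30 µL received 25 nL stock; 0% = median of vehicle wells and 100% = reference inhibitor level; the first replicate is given; inactives centre near 10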
Numbers without * were called inactive.

SMILES	NOMO-1 viab
CCCN(C)C[C@@H]1OCCCC[C@@H](C)Oc2ccc(NS(=O)(=O)c3ccc(OC)cc3)cc2C(=O)N([C@H](C)CO)C[C@@H]1C	20.4
C[C@@H]1CN([C@H](C)CO)C(=O)c2cc(NC(=O)Nc3ccc(C(F)(F)F)cc3)ccc2O[C@H]1CN(C)CC1CCCCC1	103.4*
COc1ccc(S(=O)(=O)Nc2ccc3c(c2)CC(=O)N([C@@H](C)CO)C[C@H](C)[C@H](CN(C)CC2CC2)O3)cc1	-7.0
Cc1noc(C)c1S(=O)(=O)Nc1ccc2c(c1)C(=O)N([C@@H](C)CO)C[C@H](C)[C@H](CN(C)C(=O)Nc1ccc(F)cc1)O2	-2.7
Cc1noc(C)c1S(=O)(=O)Nc1cccc2c1O[C@@H](CN(C)S(=O)(=O)c1ccc(Cl)cc1)[C@@H](C)CN([C@H](C)CO)C2=O	14.9
COC(=O)C(CC(=O)c1ccc(Cl)cc1)c1cc(=O)oc2cc(OC)ccc12 (configuration not stated)	37.2
C[C@@H]1CCCCO[C@@H](CN(C)Cc2ccccc2)[C@@H](C)CN([C@H](C)CO)C(=O)c2cc(NC(=O)Cc3ccccc3)ccc2O1	5.3
Cc1c(Cl)cccc1NC(=O)CSc1nnc(-c2ccc(Cl)c(Cl)c2)n1C	32.5
Cc1cccc(-c2noc(CN(C(=O)c3ccc(Br)o3)C(C)C)n2)c1	7.2
CC(C)OC(=O)CSc1nc(N)c(C#N)cc1C#N	42.6
Cc1noc(C)c1NC(=O)Nc1ccc2c(c1)C(=O)N([C@H](C)CO)C[C@H](C)[C@H](CN(C)Cc1ccccc1)OCCCC[C@@H](C)O2	-18.9
COc1cccc(NC(=O)CN(C)S(=O)(=O)c2cc(C)ccc2OC)c1	24.5
CCOC(=O)c1ccc(NC(=O)CSc2nc(N)c3c4c(sc3n2)CCC4)cc1	7.8
CCc1nc(SCC(=O)Nc2ccccc2C)n[nH]1	12.7
Nc1ccc(NS(=O)(=O)c2ccccc2)cc1	4.2
CNC(=O)CN(c1cccc(Cl)c1Cl)S(=O)(=O)c1ccccc1	4.2
Cc1cc(C(=O)Nc2cccc3c2O[C@@H](CN(C)Cc2ccc(Cl)c(Cl)c2)[C@@H](C)CN([C@@H](C)CO)C3=O)n(C)n1	46.5
C[C@@H]1CN([C@H](C)CO)C(=O)Cc2cc(NS(=O)(=O)c3cccs3)ccc2O[C@@H]1CN(C)Cc1ccc(C(=O)Nc2ccccc2N)cc1	116.1*
CC(C)NC(=O)Nc1cccc2c1O[C@H](CN(C)C(=O)Nc1cccc3ccccc13)[C@@H](C)CN([C@H](C)CO)C2=O	5.7
C[C@@H]1CN([C@H](C)CO)C(=O)Cc2cc(N(C)C)ccc2O[C@@H]1CN(C)Cc1ccc2c(c1)OCO2	8.5

A different layout for 3 compounds above:
CC(C)OC(=O)CSc1nc(N)c(C#N)cc1C#N
- NOMO-1 viab = 42.6
Cc1noc(C)c1NC(=O)Nc1ccc2c(c1)C(=O)N([C@H](C)CO)C[C@H](C)[C@H](CN(C)Cc1ccccc1)OCCCC[C@@H](C)O2
- NOMO-1 viab = -18.9
COc1cccc(NC(=O)CN(C)S(=O)(=O)c2cc(C)ccc2OC)c1
- NOMO-1 viab = 24.5

Reprinted at random: 4 records from the list.
SMILES	NOMO-1 viab
Cc1noc(C)c1NC(=O)Nc1ccc2c(c1)C(=O)N([C@H](C)CO)C[C@H](C)[C@H](CN(C)Cc1ccccc1)OCCCC[C@@H](C)O2	-18.9
COc1cccc(NC(=O)CN(C)S(=O)(=O)c2cc(C)ccc2OC)c1	24.5
CNC(=O)CN(c1cccc(Cl)c1Cl)S(=O)(=O)c1ccccc1	4.2
C[C@@H]1CN([C@H](C)CO)C(=O)Cc2cc(N(C)C)ccc2O[C@@H]1CN(C)Cc1ccc2c(c1)OCO2	8.5

Further results follow.
SMILES	NOMO-1 viab
Cc1ccc(S(=O)(=O)N(C)C[C@@H]2Oc3ccc(NC(=O)NC(C)C)cc3C(=O)N([C@H](C)CO)C[C@H]2C)cc1	12.7
C[C@@H]1CN([C@H](C)CO)C(=O)c2cccc(NC(=O)Nc3ccc(F)cc3)c2O[C@H]1CN(C)C(=O)NC1CCCCC1	-2.5
CCCCC/C=C\C/C=C\CCCCCCCC(=O)OCC(O)CO (configuration not stated)	39.1
CSc1cccc(NC(=O)CSc2nnc(-c3cccc(C)c3)n2-c2ccccc2)c1	53.8
C[C@@H]1CN([C@@H](C)CO)C(=O)c2cccc(NC(=O)Nc3ccccc3)c2O[C@H]1CN(C)C(=O)Nc1ccc(F)cc1	8.0
O=C(Cn1cnc2sc(-c3ccccc3)cc2c1=O)NCc1ccco1	115.7*
CCOc1cc(C)c(Cl)cc1S(=O)(=O)n1nnc2ccccc21	17.0
Cc1cc(C)cc(OCC(=O)Nc2ccccc2N2CCN(C)CC2)c1	15.5
C[C@H]1CN([C@@H](C)CO)C(=O)c2cccc(NC(=O)Nc3cccc4ccccc34)c2O[C@@H]1CN(C)C(=O)NC1CCCCC1	54.4
CNC[C@@H]1Oc2ccc(NC(=O)Nc3c(C)noc3C)cc2C(=O)N([C@H](C)CO)C[C@@H]1C	-8.6
CNC[C@H]1Oc2c(NS(=O)(=O)c3cn(C)cn3)cccc2C(=O)N([C@@H](C)CO)C[C@H]1C	10.1
Cc1noc(C)c1NC(=O)Nc1cccc2c1O[C@H](CN(C)Cc1ccc(C(=O)Nc3ccccc3N)cc1)[C@@H](C)CN([C@@H](C)CO)C2=O	46.7
C[C@@H]1CN([C@@H](C)CO)C(=O)c2cc(NC(=O)Nc3ccccc3)ccc2O[C@H]1CN(C)S(=O)(=O)c1cn(C)cn1	9.0
Cc1ccc(S(=O)(=O)Nc2ccc3c(c2)CC(=O)N([C@H](C)CO)C[C@H](C)[C@H](CN(C)S(=O)(=O)c2ccccc2)O3)cc1	26.2
C[C@@H]1CN([C@H](C)CO)C(=O)c2cc(NS(C)(=O)=O)ccc2O[C@H]1CN(C)Cc1ccc(C(=O)Nc2ccccc2N)cc1	21.2
Cc1cc(C(=O)Nc2cccc3c2O[C@H](CN(C)C(=O)Nc2cccc4ccccc24)[C@@H](C)CN([C@@H](C)CO)C3=O)n(C)n1	20.8
CC(C)NC(=O)Nc1cccc2c1O[C@H](CN(C)Cc1ccc(-c3ccccc3)cc1)[C@@H](C)CN([C@@H](C)CO)C2=O	10.5
C[C@H](CO)N1C[C@H](C)[C@H](CN(C)C(=O)NC2CCCCC2)Oc2ccc(NS(=O)(=O)c3ccc(F)cc3)cc2C1=O	25.7
C[C@H](CO)N1C[C@H](C)[C@H](CN(C)CC2CCCCC2)Oc2ccc(NS(=O)(=O)c3ccccc3)cc2C1=O	20.4
O=C(Nc1cccc([N+](=O)[O-])c1)Nc1nn(Cc2c(F)cccc2Cl)cc1Br	58.6
C[C@@H]1CN([C@H](C)CO)C(=O)c2cc(NC(=O)Nc3ccc(C(F)(F)F)cc3)ccc2O[C@@H]1CN(C)Cc1ccccc1	89.2*
CCn1c(SCC(=O)Nc2ccc(OC)c(Cl)c2)nnc1-c1ccccc1O	-6.7
C[C@@H]1CCCCO[C@@H](CN(C)S(=O)(=O)c2ccccc2)[C@@H](C)CN([C@H](C)CO)C(=O)c2cc(NC(=O)Nc3cccc4ccccc34)ccc2O1	25.3
CCOC(=O)c1sc2ncn(CC(=O)Nc3cccc(Br)c3)c(=O)c2c1C	38.8
CC(C(=O)Nc1ccccc1Cl)N(c1ccccc1)S(C)(=O)=O (configuration not stated)	-1.0
CNC[C@H]1Oc2c(NC(=O)c3cc(C)nn3C)cccc2C(=O)N([C@@H](C)CO)C[C@@H]1C	9.3
NC(=O)COc1ccc(NC(=O)c2cncc(Br)c2)cc1	12.5
O=C(CSc1nnc2ccc3ccccc3n12)Nc1ccc2c(c1)OCCO2	12.1
COc1ccc(S(=O)(=O)N(C)C[C@@H]2Oc3ccc(NC(=O)Nc4ccccc4)cc3CC(=O)N([C@H](C)CO)C[C@@H]2C)cc1	36.4
Cc1noc(C)c1NC(=O)N(C)C[C@H]1Oc2c(NS(=O)(=O)c3cccs3)cccc2C(=O)N([C@H](C)CO)C[C@H]1C	8.6
CC(=O)c1ccc(NC(=O)CN(C)S(=O)(=O)c2ccc(Cl)cc2)cc1	-12.5
C[C@@H]1CN([C@H](C)CO)C(=O)Cc2cc(NS(=O)(=O)c3cn(C)cn3)ccc2O[C@H]1CN(C)Cc1ccccc1	-3.7
Cc1cc(C)c2oc(-c3cccc(NC(=O)COc4ccc(Cl)cc4)c3C)nc2c1	21.7
COc1ccc(S(=O)(=O)Nc2ccc3c(c2)C(=O)N([C@@H](C)CO)C[C@@H](C)[C@H](CN(C)Cc2ccccc2)O3)cc1	-8.5
C[C@@H]1CN([C@H](C)CO)C(=O)c2cccc(NS(C)(=O)=O)c2O[C@@H]1CN(C)C(=O)Nc1cccc2ccccc12	-9.1
C[C@H]1CN([C@@H](C)CO)C(=O)c2cc(NS(=O)(=O)c3ccccc3)ccc2O[C@@H]1CN(C)C(=O)NC1CCCCC1	13.9
CC(C)(C)c1ccc(-c2[nH]nc(NC(=O)c3ccccc3Cl)c2Br)cc1	122.6*
NC(=O)C1CCN(C(=O)CSc2nc3ccccc3s2)CC1	8.2
Cn1c(SCC(=O)Nc2ccc(F)cc2)nnc1-c1cccnc1	29.1
Cc1cc(S(=O)(=O)NCc2cccnc2)ccc1F	-4.4
COc1c(O)cc(-c2oc3cc(O)cc(O)c3c(=O)c2O[C@@H]2O[C@@H](C)[C@H](OC(C)=O)[C@@H](O)[C@H]2O)cc1O	22.2
C[C@@H]1CN([C@H](C)CO)C(=O)Cc2cc(NC(=O)Cc3ccccc3)ccc2O[C@H]1CN(C)CC1CCCCC1	38.0
C[C@@H]1CN([C@H](C)CO)C(=O)Cc2cc(NS(C)(=O)=O)ccc2O[C@@H]1CN(C)Cc1ccc(Oc2ccccc2)cc1	35.8
COc1cc(NC(=O)C2C3C=CC(C3)C2C(=O)O)ccc1NC(=O)c1ccccc1 (configuration not stated)	-11.6
O=C(O)C1C2C=CC(C2)C1C(=O)Nc1ccc(C(=O)N2CCCCC2)c(Cl)c1 (configuration not stated)	2.6
O=C(CSc1nnc(-c2cccc(F)c2)n1-c1ccccc1)Nc1ccc(F)cc1	41.8
C[C@H](CO)N1C[C@H](C)[C@H](CN(C)S(=O)(=O)c2ccccc2)Oc2ccc(NC(=O)Nc3ccc(F)cc3)cc2CC1=O	94.8*
COc1ccc(NC(=O)N(C)C[C@H]2Oc3c(NS(=O)(=O)c4ccc(OC)cc4)cccc3C(=O)N([C@@H](C)CO)C[C@H]2C)cc1	22.9
CC(=O)CSc1ncnc2scc(-c3ccc(F)cc3)c12	11.0
Cc1ccc(NC(=O)c2ccc(OC(C)C(=O)Nc3ccccc3)cc2)cc1 (configuration not stated)	47.5

Further structures follow:
SMILES	NOMO-1 viab
C[C@@H]1CN([C@H](C)CO)C(=O)Cc2cc(NC(=O)Cn3cnnn3)ccc2O[C@@H]1CN(C)Cc1ccncc1	7.9
Cc1ccc(SCC(=O)Nc2ccccc2C(=O)N2CCOCC2)cc1	-1.5
C[C@@H]1CN([C@H](C)CO)C(=O)c2cc(N(C)C)ccc2O[C@@H]1CN(C)C(=O)Nc1cccc2ccccc12	-3.0
C[C@H]1CN([C@@H](C)CO)C(=O)c2cccc(NC(=O)Nc3ccccc3)c2O[C@H]1CN(C)C(=O)Nc1ccc(F)cc1	33.5
C[C@H]1CN([C@@H](C)CO)C(=O)c2cc(NC(=O)CCCN(C)C)ccc2O[C@H]1CN(C)Cc1ccc(C(F)(F)F)cc1	4.7
CC(C)S(=O)(=O)c1csc(C(=O)NN)c1Cl	18.4
N#CC(C#N)=C(Nc1ccccc1Cl)SCc1cccc(F)c1	87.0*
C[C@@H]1CCCCO[C@H](CN(C)C(=O)Nc2ccc(C(F)(F)F)cc2)[C@@H](C)CN([C@H](C)CO)C(=O)c2cc(NC(=O)Nc3cccc4ccccc34)ccc2O1	12.4
C[C@@H]1CN([C@H](C)CO)C(=O)Cc2cc(NC(=O)Cn3cnnn3)ccc2O[C@@H]1CN(C)C(=O)NC1CCCCC1	21.9
COc1ccc(C(=O)CSc2nnc(-c3ccccc3Cl)n2-c2ccccc2)cc1	26.7
COc1ccc(NC(=O)Nc2ccc3c(c2)C(=O)N([C@@H](C)CO)C[C@@H](C)[C@H](CN(C)S(=O)(=O)c2ccc(C)cc2)O3)cc1	3.5
CCOC(=O)c1c(NC(=O)Cn2c(=O)oc3ccccc32)sc(C(C)=O)c1C	20.0
C[C@@H]1CN([C@@H](C)CO)C(=O)c2cccc(NC(=O)c3nc4ccccc4s3)c2O[C@@H]1CN(C)C(=O)Nc1ccccc1	49.1
C[C@H](CO)N1C[C@H](C)[C@H](CN(C)Cc2ccc(C(=O)Nc3ccccc3N)cc2)Oc2c(NC(=O)Nc3ccc(F)cc3)cccc2C1=O	97.1*
C[C@@H]1CN([C@@H](C)CO)C(=O)c2cc(NC(=O)Nc3ccc4c(c3)OCO4)ccc2O[C@H]1CN(C)S(=O)(=O)c1cccs1	19.9
Cc1ccc(S(=O)(=O)NCC(=O)Nc2ccc(C(F)(F)F)cc2)cc1	-4.7
C[C@H]1CN([C@@H](C)CO)C(=O)c2cc(NC(=O)Nc3ccc(C(F)(F)F)cc3)ccc2O[C@H]1CN(C)S(=O)(=O)c1ccc(Cl)cc1	20.7
Cc1cc(C(=O)Nc2cccc3c2O[C@H](CN(C)S(=O)(=O)c2ccccc2)[C@H](C)CN([C@H](C)CO)C3=O)n(C)n1	14.2
CS(=O)(=O)N(CC(=O)Nc1cc(C(F)(F)F)ccc1Cl)c1ccccc1Br	13.8
Cc1noc(C)c1NC(=O)N(C)C[C@@H]1Oc2ccc(NC(=O)Cc3ccccc3)cc2CC(=O)N([C@@H](C)CO)C[C@@H]1C	19.9
Cn1c(=O)c2c(ncn2CC(O)CNc2ccc(Cl)cc2)n(C)c1=O (configuration not stated)	26.8
C[C@H]1CN([C@@H](C)CO)C(=O)c2cccc(NS(=O)(=O)c3ccc(F)cc3)c2O[C@@H]1CN(C)C(=O)NC1CCCCC1	3.6
COc1ccc(C)cc1S(=O)(=O)N(C)CC(=O)NC1CCCC1	3.9

The list is partial. The share of hits here may be higher or lower than overall.
